Source: PubChem
MrgX1 antagonist: blocks BAM8-22 activation of human MrgX1 receptor; 310,000 compounds, 1.3% hits; AID 588676; MRGX1-HEK293 calcium flux, Fluo-4, BAM8-22 antagonism; stronger effect = lower value; B-score at 10 µM; Q96LB2;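 active = calcium-response B-score plate-corrected more than 3 library SD below zero, starting fluorescence within 5 deviations, no agonist response on first addition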;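 note: peak minus trough fluorescence over baseline after final BAM8-22 challenge near maximal dose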
TRPC4 potent: allosterically enhances the mouse TRPC4 cation channel; Q9QUQ5; HEK293 TRPC4beta/mu-opioid, DAMGO EC20, Fluo-4 Ca2+ flux; stronger effect = higher value; B-score at 10 µM; 310,000 compounds, 0.42% hits; AID 2227;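 active = B-score of calcium response area above 5 SD of library B-scores, with initial fluorescence ratio within 5 SD of library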;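 note: B-score of integrated fluorescence ratio over time as area under calcium response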
Target sequence (Q9QUQ5 whole entry, looked up): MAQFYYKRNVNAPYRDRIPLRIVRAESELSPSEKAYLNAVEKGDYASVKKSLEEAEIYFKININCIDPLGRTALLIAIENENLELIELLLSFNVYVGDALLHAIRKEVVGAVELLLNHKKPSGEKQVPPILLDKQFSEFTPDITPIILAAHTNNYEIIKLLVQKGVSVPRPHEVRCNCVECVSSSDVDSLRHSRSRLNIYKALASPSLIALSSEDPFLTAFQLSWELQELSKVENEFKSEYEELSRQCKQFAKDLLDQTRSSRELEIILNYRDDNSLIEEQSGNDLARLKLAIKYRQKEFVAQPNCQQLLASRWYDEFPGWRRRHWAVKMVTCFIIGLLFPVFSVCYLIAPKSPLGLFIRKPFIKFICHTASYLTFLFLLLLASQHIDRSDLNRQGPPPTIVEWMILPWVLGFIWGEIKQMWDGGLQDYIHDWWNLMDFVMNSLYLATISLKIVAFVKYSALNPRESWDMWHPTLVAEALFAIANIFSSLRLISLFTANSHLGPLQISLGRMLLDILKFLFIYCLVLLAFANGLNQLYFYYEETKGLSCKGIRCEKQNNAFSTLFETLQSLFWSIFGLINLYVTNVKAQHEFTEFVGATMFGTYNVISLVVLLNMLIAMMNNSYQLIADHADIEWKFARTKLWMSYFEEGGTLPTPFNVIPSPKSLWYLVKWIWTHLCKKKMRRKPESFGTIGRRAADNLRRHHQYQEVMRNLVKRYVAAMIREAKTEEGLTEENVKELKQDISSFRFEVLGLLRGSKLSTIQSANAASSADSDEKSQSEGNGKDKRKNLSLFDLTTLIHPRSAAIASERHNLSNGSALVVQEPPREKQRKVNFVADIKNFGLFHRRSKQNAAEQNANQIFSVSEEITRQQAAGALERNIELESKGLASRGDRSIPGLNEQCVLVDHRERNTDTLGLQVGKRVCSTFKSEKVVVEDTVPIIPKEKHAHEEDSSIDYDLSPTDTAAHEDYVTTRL
MrgX1 ag: human MrgX1 receptor agonism, primary screen | MrgX1-HEK293 cells, Fluo-4 calcium fluorescence, agonist mode; stronger effect = higher value | 310,000 compounds, 0.44% hits | B-score at 10 µM;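 active = calcium response B-score plate-corrected fluorescence ratio at least 3 library SD, with starting fluorescence B-score inside 5 SD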
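times = overnight plating, then 30 min 37 °C plus 30 min room-temperature dye loading | assay system = stable human MrgX1 HEK293 cell line | input = fifteen thousand cells per well | signal = kinetic calcium dye fluorescence, Fluo-4 NW | dosing = compound delivered in addition one of three | read-out = B-scored fluorescence response ratio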
TRPC4 agonist: opens the mouse TRPC4 cation channel. B-score at 10 µM. HEK293 TRPC4beta/mu-opioid, Fluo4 calcium fluorescence; stronger effect = higher value. 310,000 compounds, 0.49% hits. Q9QUQ5. AID 2237;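 active = B-score above 5 SD of library B-scores, and initial fluorescence ratio not above library mean plus 5 SD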;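 note: positive B-score marks a calcium rise read as TRPC4 activation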
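Assay system – TRPC4beta and mu-opioid receptor HEK293 stable cells · Measured by – Fluo4 fluorescence, kinetic · Schedule – dye loading 45 min room temperature, 110 s kinetic read · Read-out – B-scored integrated calcium fluorescence ratio · Controls – buffer and maximal DAMGO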
MrgX1 allo act: allosterically activates human MrgX1 receptor signaling. Q96LB2. MrgX1-HEK293, Fluo-4 calcium flux, FDSS; stronger effect = higher value. B-score at 10 µM. 310,000 compounds, 0.63% hits. AID 588675;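 active = plate-corrected calcium response at least 3 library SD above typical, normal starting fluorescence, not activating the receptor alone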;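 note: compound read alongside a low EC10 to EC30 dose of BAM8-22 agonist; peak minus trough fluorescence over baseline measured at the second addition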
TRPC4 block: blocks the mouse TRPC4 cation channel. B-score at 10 µM. AID 2247. 300,000 compounds, 0.39% hits. HEK293 TRPC4beta/mu-opioid, DAMGO-evoked Fluo4 calcium flux; stronger effect = lower value;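 active = B-score over 3 SD under the library average, no early fluorescence shift, positive overall ratio signal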
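Assay system: HEK293 cells with stable TRPC4beta plus mu-opioid receptor expression; Probe or stimulus: DAMGO in two steps, submaximal then maximal; Dosing: single-point compound dosing; Measured by: Fluo4 calcium-dye fluorescence, kinetic read; Read-out basis: B score from integrated Fluo4 fluorescence ratio.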
The depositor's hits bear a star. This is a subset; count on the stated rates, not on these rows.

Results for O=C(COC(=O)/C=C/c1cccs1)NC(c1ccccc1)c1ccccc1 ?
MrgX1 antagonist: inactive; TRPC4 potent: inactive; MrgX1 ag: inactive; TRPC4 agonist: inactive; MrgX1 allo act: inactive; TRPC4 block: inactive

What do the screens show for `CC(C)CC1Nc2ncnc(N3CCN(c4ccccc4)CC3)c2N(Cc2ccccc2)C1=O` (centres undefined)?
MrgX1 antagonist: inactive; TRPC4 potent: inactive; MrgX1 ag: inactive; TRPC4 agonist: inactive; MrgX1 allo act: inactive; TRPC4 block: inactive

What do the screens show for `CCCOP(=O)(c1ccc(N(C)C)cc1)C(Nc1ccccc1)c1ccc(C)cc1` (centres undefined)?
MrgX1 antagonist: inactive; TRPC4 potent: inactive; MrgX1 ag: inactive; TRPC4 agonist: inactive; MrgX1 allo act: inactive; TRPC4 block: inactive

What do the screens show for `COc1cc(/C=C2\SC(=S)N(NC(=O)c3cccnc3)C2=O)ccc1O`?
MrgX1 antagonist: -6.72*; TRPC4 potent: inactive; MrgX1 ag: inactive; TRPC4 agonist: inactive; MrgX1 allo act: inactive; TRPC4 block: inactive

Results for CS/C(=N\S(=O)(=O)c1cccs1)Nc1cccc(Cl)c1C ?
MrgX1 antagonist: inactive; TRPC4 potent: inactive; MrgX1 ag: inactive; TRPC4 agonist: inactive; MrgX1 allo act: inactive; TRPC4 block: inactive

Results for CN1CCN(C(=O)c2ccc(NS(=O)(=O)c3ccccc3)cc2)CC1 ?
MrgX1 antagonist: inactive; TRPC4 potent: inactive; MrgX1 ag: inactive; TRPC4 agonist: inactive; MrgX1 allo act: inactive; TRPC4 block: inactive

Results for C/C(=N\NC(=O)COc1ccc(C)cc1[N+](=O)[O-])c1cccs1 ?
MrgX1 antagonist: -6.52*; TRPC4 potent: inactive; MrgX1 ag: inactive; TRPC4 agonist: inactive; MrgX1 allo act: inactive; TRPC4 block: inactive

What do the screens show for `Cc1ccc(NC(=O)c2sc3nc(N)c(C#N)cc3c2N)cc1`?
MrgX1 antagonist: inactive; TRPC4 potent: inactive; MrgX1 ag: inactive; TRPC4 agonist: inactive; MrgX1 allo act: inactive; TRPC4 block: inactive

What do the screens show for `CN[C@@H]1CC[C@H](c2ccc(Cl)c(Cl)c2)c2ccccc21`?
MrgX1 antagonist: inactive; TRPC4 potent: 14*; MrgX1 ag: inactive; TRPC4 agonist: inactive; MrgX1 allo act: inactive; TRPC4 block: inactive

How did NC(=O)C1CCN(C(=O)Nc2ccccc2)CC1 do in these assays?
MrgX1 antagonist: inactive; TRPC4 potent: inactive; MrgX1 ag: inactive; TRPC4 agonist: inactive; MrgX1 allo act: inactive; TRPC4 block: inactive

What do the screens show for `C(=N\c1ncnc2sccc12)/NOCc1ccccc1`?
MrgX1 antagonist: inactive; TRPC4 potent: inactive; MrgX1 ag: inactive; TRPC4 agonist: inactive; MrgX1 allo act: inactive; TRPC4 block: inactive

What do the screens show for `N#Cc1ccc(CNC(=O)N2CCOCC2)cc1`?
MrgX1 antagonist: inactive; TRPC4 potent: inactive; MrgX1 ag: inactive; TRPC4 agonist: inactive; MrgX1 allo act: inactive; TRPC4 block: inactive

Results for Cc1ccc2c(c1)C1CN(C)CCC1N2C(=O)COc1ccc(N(C)S(=O)(=O)c2cccs2)cc1 (centres undefined) ?
MrgX1 antagonist: inactive; TRPC4 potent: inactive; MrgX1 ag: inactive; TRPC4 agonist: inactive; MrgX1 allo act: inactive; TRPC4 block: inactive

How did COc1ccc(CNc2ncnc3sccc23)cc1 do in these assays?
MrgX1 antagonist: inactive; TRPC4 potent: inactive; MrgX1 ag: inactive; TRPC4 agonist: inactive; MrgX1 allo act: inactive; TRPC4 block: inactive

Of the compounds above, 3 have four or more nitrogen atoms:
What do the screens show for `CC(C)CC1Nc2ncnc(N3CCN(c4ccccc4)CC3)c2N(Cc2ccccc2)C1=O` (centres undefined)?
MrgX1 antagonist: inactive; TRPC4 potent: inactive; MrgX1 ag: inactive; TRPC4 agonist: inactive; MrgX1 allo act: inactive; TRPC4 block: inactive

What do the screens show for `Cc1ccc(NC(=O)c2sc3nc(N)c(C#N)cc3c2N)cc1`?
MrgX1 antagonist: inactive; TRPC4 potent: inactive; MrgX1 ag: inactive; TRPC4 agonist: inactive; MrgX1 allo act: inactive; TRPC4 block: inactive

What do the screens show for `C(=N\c1ncnc2sccc12)/NOCc1ccccc1`?
MrgX1 antagonist: inactive; TRPC4 potent: inactive; MrgX1 ag: inactive; TRPC4 agonist: inactive; MrgX1 allo act: inactive; TRPC4 block: inactive
